High-throughput results as filed in PubChem.
Six1-Eya2 inh: Six1/Eya2 interaction inhibition; Q15475+O00167; AlphaScreen GST-Six1/His-Eya2 binding, biochemical; hits give low values; control for the full effect not named in the record; activity change, % (no concentration beside the values); 0.56% of 360,000 active; in the data active = activity change below about -65%; inconclusive = about -30% to -65%; inactive = above about -30%; note: % is set by controls: 0 for no effect and ±100 for the full control effect; compound concentration not given in the record
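Six1/Eya2 binding was read as AlphaScreen signal after compounds were pinned into GST-Six1 plus His-tagged Eya2 (5X stock 250/500 nM) in pH 8.0 Tris/NaCl/TCEP buffer, beads added, then incubated 1 h, 37 C, dark.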
TRPML1 blocker: inhibitors of human TRPML1 channel | activity change, negative = inhibition, % (test concentration not listed) | TRPML1-inducible cells, Ca2+ dye fluorescence, FDSS; hits give low values; inhibition of EC80 agonist-evoked calcium signal | 0.02% of 390,000 active | Q9GZU1; in the data active means activity change below about -50%; inconclusive means about -30% to -50%; inactive means above about -30%;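 note: stimulus is agonist 54-4 at its EC80 concentration; % is set by controls: 0 for no effect and ±100 for the full control effect; compound concentration not given in the record; the text of the record puts the active cut at -80%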
Target sequence (Q9GZU1 whole entry, looked up): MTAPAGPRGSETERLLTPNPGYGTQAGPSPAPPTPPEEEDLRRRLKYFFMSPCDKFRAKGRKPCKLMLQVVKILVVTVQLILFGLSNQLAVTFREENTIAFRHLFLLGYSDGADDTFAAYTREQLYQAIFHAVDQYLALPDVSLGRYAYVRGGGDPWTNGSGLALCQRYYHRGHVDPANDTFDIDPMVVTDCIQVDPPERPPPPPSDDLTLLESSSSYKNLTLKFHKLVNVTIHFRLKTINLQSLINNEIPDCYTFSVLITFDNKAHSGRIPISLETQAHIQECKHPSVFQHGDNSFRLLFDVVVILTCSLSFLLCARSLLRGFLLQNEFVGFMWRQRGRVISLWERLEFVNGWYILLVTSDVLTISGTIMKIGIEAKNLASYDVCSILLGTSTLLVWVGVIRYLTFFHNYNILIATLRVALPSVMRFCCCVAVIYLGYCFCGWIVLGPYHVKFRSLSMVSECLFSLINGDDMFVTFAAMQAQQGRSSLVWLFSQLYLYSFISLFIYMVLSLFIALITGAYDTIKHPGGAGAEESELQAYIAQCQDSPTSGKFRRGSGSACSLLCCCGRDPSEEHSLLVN
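Tet-induced TRPML1-DL cells loaded with Ca8 no-wash calcium dye were read kinetically on FDSS. Compound addition was followed by EC80 agonist 54-4 (4 uM final); inhibition was read over 110 s.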
PINK1 modulator: changes PINK1 expression; PINK1 immunofluorescence, high-content cytometry, 24 h; Potency, µM (doses to about 76.6 µM), without a hit: at the highest dose activation (PINK1 increase), actives largely listed as activators; 0.2% of 410,000 active; active = well fitted activation curve with a large enough effect; inconclusive = small, poorly fitted or top-dose-only effect; inactive = flat fitted curve, though single readings scatter; cell line not stated here;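 note: potency is the fitted concentration of half-maximal effect; % of control where 0% means no effect; nearly all actives have a fitted effect of over 65% in size; a mitochondrial uncoupler was the plate control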
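Cells are seeded, rested 12 hours, then given compound at five concentrations or DMSO for 24 hours. After fixation, blocking and antibody staining, PINK1 amount and mitochondrial localization are scored; CCCP serves as control.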
D2 agonist: agonists of human D2 dopamine receptor (beta-arrestin) | DiscoveRx PathHunter D2 beta-arrestin, luminescence, 90 min; 100% = 57 uM dopamine signal | P14416 | 0.084% of 360,000 active | activation, % (concentration not given with the values); in the data active = activation above about 40%; inconclusive = about 15% to 40%; inactive = below about 15%; note: compound concentration not given in the record; the text of the record calls up to 30% inactive
Target sequence (P14416 whole entry, looked up): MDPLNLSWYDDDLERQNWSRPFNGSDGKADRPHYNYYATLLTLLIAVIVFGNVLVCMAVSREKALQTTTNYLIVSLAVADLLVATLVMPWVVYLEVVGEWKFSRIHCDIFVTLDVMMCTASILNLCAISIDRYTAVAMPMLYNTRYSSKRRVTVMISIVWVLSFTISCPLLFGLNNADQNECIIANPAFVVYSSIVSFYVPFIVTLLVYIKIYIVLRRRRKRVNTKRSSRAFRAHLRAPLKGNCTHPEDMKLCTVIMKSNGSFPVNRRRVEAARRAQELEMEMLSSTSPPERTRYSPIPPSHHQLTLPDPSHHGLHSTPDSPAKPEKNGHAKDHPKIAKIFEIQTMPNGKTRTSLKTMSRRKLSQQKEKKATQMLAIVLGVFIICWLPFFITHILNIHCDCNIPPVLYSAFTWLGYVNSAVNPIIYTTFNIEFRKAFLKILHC
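DiscoveRx PathHunter D2 beta-arrestin cells (2,100/well) attached overnight, then compound-stimulated 90 min at 37 C in HBSS/10 mM HEPES/0.1% Tween-20 buffer; beta-galactosidase complementation read by luminescence after 1 h at ambient temperature. Dopamine 57 uM final (EC100) as control.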
TRPML1 agonist: agonists of human TRPML1 channel; TRPML1-expressing cells, Ca2+ dye fluorescence, FDSS; host cell line not named in the record; reference of the full effect not given here; activation, % (no concentration beside the values); 0.12% of 410,000 active; in the data active = activation above about 50%; inconclusive = about 30% to 50%; inactive = below about 30%; note: 0% is about no effect; the text of the record puts the active cut at 80%
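Tetracycline-induced TRPML1-DL cells are seeded and incubated overnight before loading with a no-wash Ca2+ dye and quencher. Agonist activity is taken from the 110 s fluorescence read following compound pin-transfer on an FDSS, before EC80 54-4 challenge.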
CtBP-E1A blk: CtBP/E1A binding inhibition; 0.49% of 340,000 active; activity change, % (no concentration beside the values); AlphaScreen GST-E1A/His-CtBP binding, 1536-well; hits give low values; control for the full effect not named in the record; in the data active means activity change below about -65%; inconclusive means about -30% to -65%; inactive means above about -30%; note: % is set by controls: 0 for no effect and ±100 for the full control effect; compound concentration not given in the record
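Steps: dispense buffer (Tris pH 8.0, NaCl 300 mM, TCEP 1 mM, BSA, Tween 20); add 5X protein mix (GST-E1A, His-CtBP, 125 nM each); pin 23 nL compound; 2 h at 37 °C, dark; add 5X beads (50 ug/mL); 1 h; read.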
Starred values were filed as active, the others as inactive; ? = inconclusive; . = no result given; [ ] = another dose, or the depositor's remark.

SMILES	Six1-Eya2 inh	TRPML1 blocker	PINK1 modulator	D2 agonist	TRPML1 agonist	CtBP-E1A blk
Cc1cc(Nc2sc(C(=O)c3ccc(F)cc3)c(N)c2C(=O)Nc2ccc(F)cc2)ccc1Cl	.	2	?	.	3.9	.
CCOC(=O)[C@]12CCC=C1N(Cc1ccco1)C(=O)[C@H](CC(=O)N1CCCCC1)C2	3	.	0.3%	.	-0.9	1
CCOC(=O)c1c(C)oc2nc(C)nc(NCCc3ccc(Cl)cc3)c12	.	11	0.0%	.	-0.6	.
COc1ccc(-n2c(Cc3cccn3C)nnc2SCC(=O)Nc2nc(C)cs2)cc1	-21	3	3.2%	2.6	0.6	-11
CN(C)c1ccc(P(=O)(CC(=O)N/N=C/c2ccc(C#N)cc2)OCCCl)cc1 (stereo not drawn)	-5	-9	-0.1%	-6.8	0.1	-8
Clc1ccc(-c2nnc3n2CCCC3)cc1Cl	1	5	1.8%[38.3 µM]	-2.2	-0.2	-3
COc1ccc(-c2ccc(SCC(=O)N3CCOCC3)nn2)cc1OC	-27	6	-2.1%[38.3 µM]	-1.6	-0.3	-25
CC(C)(C)OC(=O)N1Cc2ccccc2C[C@H]1C(=O)O	1	20	-0.3%	-2.8	-0.6	1
Cn1c(NCc2ccccc2F)nc2cc(-c3ccccc3)sc2c1=O	5	.	5.2%	-2.0	-0.1	-2
O=C1CCCC2=C1C(c1ccc3c(c1)OCO3)c1c([nH]n(-c3ccccc3)c1=O)N2 (stereo not drawn)	-11	-3	11%[38.3 µM]	-5.3	-0.1	-16
CCN(CC)C(=O)c1cccc(NC(=O)C2=COCCO2)c1	3	-6	1.5%	-0.4	0.3	.
COc1ccc2c(c1OC)C(=O)OC2CC(=O)c1ccc(O)c(O)c1 (stereo not drawn)	-7	-9	-0.5%[38.3 µM]	-0.6	-0.3	-2
Cc1ccccc1C(=O)Nc1ccccc1NC(=O)c1ccccc1C	8	52	-1.5%	-0.4	0.8	0
CCNC(=S)N/N=C(\C)c1ccc(N2CCOCC2)cc1	-13	9	1.1%	-3.3	-0.5	-3
CCN(Cc1ccccc1)C(=O)COC(=O)CNS(=O)(=O)c1ccc(C)cc1	2	-18	5.4%	-3.7	1.4	2
COc1ccccc1Cc1c(C2CCCCC2)nc2c3ccccc3ccn12	-4	.	?	.	7.9	-15
O=C(C1CCCO1)N1CCC(c2nc3ccccc3[nH]2)CC1 (stereo not drawn)	2	15	7.9%[38.3 µM]	-2.7	0.0	3
COc1cc(C(=O)Nc2cccc(-c3cn4cccnc4n3)c2)cc(OC)c1OC	-8	5	0.5%	8.1	-0.6	-11
COc1ccccc1/C=C/C(=O)NCC(=O)N/N=C(\CCC(=O)O)c1ccccc1	-7	14	-1.5%	-2.9	0.1	-21
O=C(CNC(=O)c1cc2ccccc2o1)NCc1cccs1	4	14	4.2%	-1.3	-0.5	-1
COc1ccc2c(c1)c(=O)c(C(=O)c1ccc(F)cc1)cn2CC(=O)Nc1ccc(F)cc1	1	20	0.7%	-7.5	-0.3	-6
CC1(C)Cc2c(sc3nc[nH]c(=O)c23)CO1	-8	11	2.0%	-0.2	0.3	-8
CCCS(=O)(=O)NC(=O)C1(C)CCCN(C(=O)c2cccc(Cl)c2)C1 (stereo not drawn)	6	.	-0.9%	-4.1	-0.4	5
CCS(=O)(=O)N1CCN(c2ccc(Cl)cc2[N+](=O)[O-])CC1	-2	-15	0.0%	0.8	1.2	1
CC(=O)N1CCOc2cc(S(=O)(=O)Nc3cccc(C(F)(F)F)c3)c(Cl)cc21	.	2	0.0%	.	0.0	.
COc1cc(C(=O)NNC(=O)NC2CCCCC2)cc(OC)c1OC	10	19	3.7%	-1.5	1.1	-1
O=C(O)C1C2C=CC(C2)C1C(=O)NC(c1ccccc1)c1ccccc1 (stereo not drawn)	4	11	-1.4%[38.3 µM]	-1.4	0.3	4
CCCCc1c(O)nc(SCCN(C)C)n(-c2ccccc2)c1=O	3	1	0.6%	-3.5	0.2	4
Cc1ccccc1NC(=O)CCCn1nc(C)c2c(C)n(-c3ccccc3)nc2c1=O	0	-10	1.7%	2.5	1.0	.
O=C1c2ccccc2S(=O)(=O)N1CC(O)COc1ccc(Cl)cc1 (stereo not drawn)	1	-12	-1.5%	-3.1	4.3	-6

Brought forward from above: 2 entries, followed by the next part.
SMILES	Six1-Eya2 inh	TRPML1 blocker	PINK1 modulator	D2 agonist	TRPML1 agonist	CtBP-E1A blk
Cc1ccccc1NC(=O)CCCn1nc(C)c2c(C)n(-c3ccccc3)nc2c1=O	0	-10	1.7%	2.5	1.0	.
O=C1c2ccccc2S(=O)(=O)N1CC(O)COc1ccc(Cl)cc1 (stereo not drawn)	1	-12	-1.5%	-3.1	4.3	-6
CC(=O)OC(C)(C)/C=C/C(=O)[C@](C)(O)C1[C@H](O)C[C@@]2(C)C3CC=C4C(C=C(O[C@@H]5O[C@H](CO)[C@@H](O)[C@H](O)[C@H]5O)C(=O)C4(C)C)[C@]3(C)C(=O)C[C@]12C (stereo partly drawn)	-2	-16	14%	-1.5	1.0	-20
Cc1ccc(-n2c3c(cc(-c4nc(-c5ccc(Cl)cc5)cs4)c2=O)C(=O)CC(C)(C)C3)cc1	.	-6	1.1%	.	-0.3	.
O=C(Cc1ccccc1)Nc1ccc(NC(=O)C2CC2)nc1	-2	-14	-1.6%	-3.8	-0.6	37
CC(=O)/C(=N\Nc1ccccc1)Oc1ccc([N+](=O)[O-])cc1	-3	30	0.1%	-0.4	-0.1	-11
COc1cc2c(cc1OC)CN(CC(=O)Nc1ccc(S(=O)(=O)N3CCCC3)cc1)CC2	-1	2	-2.0%	2.1	-0.3	-13
CCCN1C2=NCCCN2c2ccccc21	8	5	-0.9%[38.3 µM]	-2.0	0.6	5
C=CCNC(=S)NNC(=O)c1ccccc1OCC	-12	-8	-1.1%	-0.8	-0.5	9
CC(=O)N1CCc2cc(S(=O)(=O)CCC(=O)Nc3ccc(C)cc3Br)ccc21	.	5	2.2%	.	-0.1	.
CCOC(=O)c1sc(NC(=O)/C=C/c2ccc(F)cc2)nc1C	3	4	-2.2%	-2.9	1.2	-21
O=C(Nc1ccc(N2CCCCC2)cc1)c1cncc(Br)c1	-13	9	-3.9%	-1.4	-0.2	-13
S=c1cn[nH]c2ccccc12	-5	-6	-0.5%	-6.3	0.8	-2
O=C(Cn1cnc2ccccc2c1=O)NCCC(=O)Nc1ccc2c(c1)OCCO2	0	-5	-0.3%	-2.8	-0.9	2
CCOC(=O)c1c(-c2ccc(C)o2)csc1NC(=S)NC(=O)c1cccs1	-9	-12	7.7%	-4.7	0.5	4
Cc1cc(C)cc(N(C(=O)c2csnn2)C(C(=O)NC(C)(C)C)c2ccncc2)c1 (stereo not drawn)	15	-10	6.1%	-3.0	-0.2	1
CCOc1ccccc1NC(=O)COc1coc(CN2CCCc3ccccc32)cc1=O	-27	-4	-5.7%	-5.7	2.7	-18
COc1ccccc1N1CCN(CC(=O)c2ccc3ccn(C(C)=O)c3c2)CC1	-2	-12	13%	-5.0	0.3	-12
CSC1=NCCN1S(=O)(=O)c1ccc2ccccc2c1	-3	1	1.2%	3.1	1.8	.
CNC(=S)N1N=C(c2ccc(Br)cc2)CC1c1ccc(OC)cc1 (stereo not drawn)	-16	-16	0.6%	-4.6	0.8	-1
COCCn1c(CN2CCN(C)CC2)nc2c1c(=O)n(C)c(=O)n2C	2	4	-0.1%	-3.1	0.2	7
OCCNCc1ccc(OCc2ccc(Cl)cc2Cl)cc1	8	4	0.0%	-3.6	0.1	-20
COC(=O)c1sccc1NC(=O)c1ccc(Br)o1	-1	43	2.2%	-1.5	0.3	0
Cc1cccc(NC(=O)CSc2nncn2-c2ccccn2)c1	-1	12	2.0%	-18	0.0	12
Cc1ccc(NC(=O)Cn2cnc3c(oc4ccccc43)c2=O)cc1Cl	.	-9	0.9%	.	0.3	.
CC(C)(C)NC(=O)NCC1CCCC1NC(=O)NC(C)(C)C (stereo not drawn)	-2	6	1.7%	2.0	0.3	.
Cc1nc2ccccc2n1CC(=O)NC1CCCCCC1	1	-11	3.4%	-6.1	-0.5	.
Cc1ccccc1C=O	-1	-1	3.2%	-2.3	-0.5	0
COC(=O)c1cc(-c2cccc([N+](=O)[O-])c2)c2c(=O)n(C)c(=O)n(C)c2n1	24	5	2.1%	2.4	0.3	4
NC(=O)c1ccc(NC(=O)COC(=O)CCC2CCCC2)cc1	1	-7	-0.2%	1.3	-0.8	5
N#Cc1cc(-c2ccccc2)cnc1Cl	13	-10	-0.2%[38.3 µM]	-0.3	1.5	15
CCCCN(C(=O)c1ccc(COc2ccccc2)o1)c1c(N)n(CC(C)C)c(=O)[nH]c1=O	0	-4	-2.0%	-2.2	-0.2	-4

Some of these compounds in order of the TRPML1 blocker value, high to low:
SMILES	Six1-Eya2 inh	TRPML1 blocker	D2 agonist	CtBP-E1A blk
OCCNCc1ccc(OCc2ccc(Cl)cc2Cl)cc1	8	4	-3.6	-20
CCOC(=O)c1c(-c2ccc(C)o2)csc1NC(=S)NC(=O)c1cccs1	-9	-12	-4.7	4
CC(=O)OC(C)(C)/C=C/C(=O)[C@](C)(O)C1[C@H](O)C[C@@]2(C)C3CC=C4C(C=C(O[C@@H]5O[C@H](CO)[C@@H](O)[C@H](O)[C@H]5O)C(=O)C4(C)C)[C@]3(C)C(=O)C[C@]12C (stereo partly drawn)	-2	-16	-1.5	-20

(continued)
SMILES	Six1-Eya2 inh	TRPML1 blocker	PINK1 modulator	D2 agonist	TRPML1 agonist	CtBP-E1A blk
COc1cc(C2C(C#N)=C(N)OC3=C2C(=O)CCC3)cc2c1OCO2 (stereo not drawn)	-10	2	-1.1%	-4.2	-1.1	-7
CC(C)CCNC(=O)c1ccc(OC2CCN(S(=O)(=O)N(C)C)CC2)cc1	-3	5	-1.5%	6.0	-0.2	-5
N=c1n(Cc2ccccc2)c2ccccc2n1CC(O)c1ccccc1 (stereo not drawn)	-1	-4	-1.6%	-1.1	0.4	-1
CC1CCCCC1NC(=O)CSc1ccsc1[N+](=O)[O-] (stereo not drawn)	-6	-28	9.2%	-3.9	-0.1	-1
Cc1cc(OCCn2ccnc2)ccc1C(C)C	-2	4	-2.6%	-5.5	-1.3	4
O=C(COc1nsnc1N1CCOCC1)Nc1ccc(Cl)cc1	-12	-9	0.0%	9.7	0.2	.
CC(C)C(=O)Nc1nnc(SCC(=O)N2C(C)CCCC2C)s1 (stereo not drawn)	10	-9	0.2%	-2.7	0.1	-3
Cc1ccc(-n2c(SCC(N)=O)nnc2-c2ccc(S(=O)(=O)N3CCCCC3)cc2)c(C)c1	1	-13	-4.0%[38.3 µM]	0.0	8.0	-5

Shown field by field: part of the list above.
CC1CCCCC1NC(=O)CSc1ccsc1[N+](=O)[O-] (stereo not drawn)
- Six1-Eya2 inh = -6
- TRPML1 blocker = -28
- PINK1 modulator = 9.2%
- D2 agonist = -3.9
- TRPML1 agonist = -0.1
- CtBP-E1A blk = -1

Cc1cc(OCCn2ccnc2)ccc1C(C)C
- Six1-Eya2 inh = -2
- TRPML1 blocker = 4
- PINK1 modulator = -2.6%
- D2 agonist = -5.5
- TRPML1 agonist = -1.3
- CtBP-E1A blk = 4
